Screening data deposited in PubChem by several laboratories.
Vif TR-FRET – inhibitors of Vif binding to APOBEC3G peptide, primary screen, biochemical, TR-FRET, GST-Vif 1-94, biotin-A3G peptide, dose response retest (AID 1117319). inhibition, %, or IC50 in µM where a hit was titrated. TR-FRET GST-Vif / biotin-A3G peptide binding; higher % means a stronger effect; test concentration not given here; strong numbers were not always called active. 260,000 compounds, 0.57% hits;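 active means above the screen mean plus three standard deviations and confirmed in dose response; inconclusive means results disagree or hit not tested in dose response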;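 further: Vif residues 1-94 fused to GST binding biotinylated APOBEC3G peptide 110-148; 0% = full assay without inhibitor and 100% = GST in place of GST-Vif; retest series ran down from 100 µM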
Calb FLC – C. albicans growth modulation with fluconazole; C. albicans CaCi-2 (fluconazole-resistant clinical isolate) + fluconazole, Alamar Blue growth, 48 h; growth inhibition, % (concentration not given with the values); AID 1979; 300,000 compounds, 0.57% hits;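 active means most replicates above 75%; inconclusive means exactly half above 75%; inactive means most below 75%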;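 further: all wells also contain fluconazole at 8 µg/ml as a sub-toxic cotreatment; 0% = median of DMSO wells and 100% = median of geldanamycin control wells; wells of about 8 µL received 7.5 nL stock; the first replicate is given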
Bfl-1 A1 inh – inhibitors of the anti-apoptotic protein A1, read as caspase activation; MEF A1-2A-BIM cells, Caspase-Glo 3/7 luminescence, 3 h; percent of clofoctol response, vehicle zero; caspase activation, % (no concentration beside the values); 330,000 compounds, 0.066% hits; AID 2462;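 active means over half of replicate activation scores above 10%, or exactly half above 10 with the replicate mean above 10; inconclusive means replicate mean below 10 yet half the replicates above 10; inactive means over half of replicates below 10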;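 further: wells of about 30 µL received 50 nL stock; many hits fall short of the cut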
T cruzi inh – blocks replication of Trypanosoma cruzi; AID 1885; T. cruzi beta-gal in NIH3T3, luminescence, 90 h; inhibition, % (test concentration not listed); 300,000 compounds, 1.4% hits;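 active means mean inhibition across valid replicates above about 55%, limit read from the data; inconclusive means mean below that limit but half or more replicates reach it; inactive means mean below it, under half of replicates reach it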;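 further: signal also drops with host cell toxicity which is not excluded here; 0% = plate median of DMSO wells and 100% = zero luminescence signal; higher percent means less beta-gal luminescence so fewer parasites; stock transfer was 50 nL into about 50 µL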
RanGTP-Imp inh – disruptors of Ran-importin-beta complex formation – biochemical, FRET, CFP-Ran, YFP-importin-beta, homogeneous, primary screen; cell-free CFP-Ran/YFP-importin-beta FRET ratio; inhibition, % (concentration not given with the values); 300,000 compounds, 1.1% hits;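 active means most replicates above 15%; inconclusive means exactly half above 15%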;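 further: 0% = DMSO wells and 100% = Ran loaded with GDP instead of GTP; wells of about 40 µL received 100 nL stock; the first replicate is given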
LANA-H2B inh – blocks KSHV LANA binding to histone H2A/H2B; Q9QR71; cell-free LANA-H2A/H2B peptide, fluorescence polarization; inhibition, % (concentration not given with the values); 320,000 compounds, 0.6% hits; AID 2629; in the data active means inhibition mostly above about 10%, no sharp cut-off; inactive means mostly below about 6.7%;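 further: stock transfer was 7.5 nL into about 10 µL; 0% = median of vehicle wells and 100% = median of positive control wells; one replicate is shown; the record names a cut of 25% in any replicate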
Target sequence (Q9QR71 whole entry, looked up): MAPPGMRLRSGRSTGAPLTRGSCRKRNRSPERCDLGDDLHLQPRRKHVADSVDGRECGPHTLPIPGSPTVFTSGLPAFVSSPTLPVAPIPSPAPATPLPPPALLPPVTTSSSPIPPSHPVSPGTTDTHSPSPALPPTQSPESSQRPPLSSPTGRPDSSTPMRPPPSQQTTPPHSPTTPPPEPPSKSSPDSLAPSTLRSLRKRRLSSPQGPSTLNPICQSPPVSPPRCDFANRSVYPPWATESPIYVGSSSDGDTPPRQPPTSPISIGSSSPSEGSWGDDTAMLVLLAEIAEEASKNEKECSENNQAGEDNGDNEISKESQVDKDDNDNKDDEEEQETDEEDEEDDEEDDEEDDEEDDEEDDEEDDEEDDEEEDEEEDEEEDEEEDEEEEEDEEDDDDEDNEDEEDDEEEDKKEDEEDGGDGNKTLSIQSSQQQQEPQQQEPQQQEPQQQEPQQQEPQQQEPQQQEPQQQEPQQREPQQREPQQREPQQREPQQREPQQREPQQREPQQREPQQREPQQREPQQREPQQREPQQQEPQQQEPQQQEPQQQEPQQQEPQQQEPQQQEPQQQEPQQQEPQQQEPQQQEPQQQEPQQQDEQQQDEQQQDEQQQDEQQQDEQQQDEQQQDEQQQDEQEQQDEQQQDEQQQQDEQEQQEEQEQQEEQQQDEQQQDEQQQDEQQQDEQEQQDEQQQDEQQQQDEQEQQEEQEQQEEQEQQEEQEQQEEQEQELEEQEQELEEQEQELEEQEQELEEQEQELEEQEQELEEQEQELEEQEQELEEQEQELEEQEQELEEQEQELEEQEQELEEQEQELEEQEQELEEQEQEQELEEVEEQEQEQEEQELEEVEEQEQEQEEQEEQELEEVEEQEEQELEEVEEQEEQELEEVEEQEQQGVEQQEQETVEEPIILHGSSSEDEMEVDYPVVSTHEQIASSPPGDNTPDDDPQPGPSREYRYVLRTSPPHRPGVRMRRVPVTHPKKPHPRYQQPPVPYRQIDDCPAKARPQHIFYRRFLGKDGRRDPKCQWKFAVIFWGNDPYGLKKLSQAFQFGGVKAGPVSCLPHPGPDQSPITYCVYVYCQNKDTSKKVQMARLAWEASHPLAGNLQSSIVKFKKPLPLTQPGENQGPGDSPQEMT
Beta apoptosis – blocks beta cell apoptosis; INS-1E cytokine-induced death, ATP luminescence, 48 h; percent of positive-control rescue, neutral wells zero; protection from apoptosis, % (no concentration beside the values); 300,000 compounds, 0.8% hits;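 active means all replicates at 75% or more, or half of them and the mean; inconclusive means half reach 75% but not the mean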;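 further: 0% = cytokine-treated negative control wells and 100% = positive control rescue; higher means more ATP so stronger rescue from cytokine killing; wells of about 40 µL received 100 nL stock; the first replicate is given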
AF4-AF9 inh – inhibitors of human MLL-AF4/AF9 interaction; P42568; AlphaScreen, biotin-AF4 peptide binding to FLAG-AF9; AID 651704; 350,000 compounds, 0.47% hits; inhibition, % at 10 µM;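 active means every replicate reaching a set inhibition limit, whatever the replicate mean, cut at about 25% in these data; inconclusive means mean inhibition reaches that limit but some replicates miss it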;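 further: 0% = plate neutral control median and 100% = total signal loss; the record names both 10 and 1 µM as test concentration; the first replicate is given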
* marks the source's active call; other numbers are inactive results; ? = inconclusive; . = not tested or not shown; & = joins results of further samples. This is a random part of the collection; overall some 4.3% were active at least once.

SMILES	Vif TR-FRET	Calb FLC	Bfl-1 A1 inh	T cruzi inh	RanGTP-Imp inh	LANA-H2B inh	Beta apoptosis	AF4-AF9 inh
CN1CCCC2(CCCN(Cc3nc(Cc4cccc(C(F)(F)F)c4)no3)C2)C1 (stereo not given)	-14%	-30	0.2	26	1.3	4.4	-1	12
CC(=O)Oc1ccc2c(C)cc(=O)[nH]c2c1	7%	-7	1.0	-14	2.7	-0.3	4	.
COc1ccc2nc(NC(=O)CCNC(=O)c3ccco3)sc2c1	-3%	.	-5.6	.	.	12	-1	-0.3
CCC1CCc2c(n(C)c3ccccc3c2=O)O1 (stereo not given)	.	-22	0.7	8	2.4	1.7	-1	-1.8
C/C(=N\NC(=O)c1cc(-c2cccc(OC(C)C)c2)nc2ccccc12)c1cccnc1	-1%	-17	-0.6	63*	0.4	-1.3	2	5.6
CC(=O)NCc1cn2c(C)csc2n1	25%	-13	-0.7	-6	-3.4	-6.3	-1	8.0
COCCn1c(=O)[nH]c2cc(C(=O)N3CCN(c4cccc(Cl)c4)CC3)ccc2c1=O	-6%	1	-0.7	29	1.1	-1.0	1	-0.4
Cc1cccc2c(CCNC(=O)c3ccc([N+](=O)[O-])cc3)c[nH]c12	.	0	-0.4	15	2.7	3.5	-3	-10
CN1CCOC(=O)/C1=N/Nc1cc(Cl)ccc1Cl	2%	-13	-0.2	-18	5.1	1.8	-7	4.6
Cc1nc(N2CCCC2C(=O)O)c2oc3ccccc3c2n1 (stereo not given)	-3%	3	0.6	-10	-1.9	2.1	1	.
CCN(CC)c1ccc(-c2nnc(SCC(=O)N(CCOC)c3c(N)n(CC(C)C)c(=O)[nH]c3=O)o2)cc1	7%	9	0.1	-7	-2.5	.	-4	-0.7
CN(C1CCCCC1)S(=O)(=O)CCNC(=O)c1ccccc1	-3%	8	0.5	0	-11	-3.4	0	0.5
CCOCCCn1c(=S)[nH]c2cc(C(=O)N3CCC(C(N)=O)(N4CCCCC4)CC3)ccc2c1=O	-7%	-6	0.3	-1	-1.4	-4.3	-2	-0.3
COc1ccccc1N1CCN(C2CCCN(C(=O)CCc3c(C)noc3C)C2)CC1 (stereo not given)	.	20	0.6	3	4.3	3.1	-3	-0.7
COc1ccc(S(=O)(=O)n2[nH]c(=O)c(CCO)c2C)cc1	.	-3	0.2	-5	2.1	2.8	-5	-2.1
CCOc1cc(/C=N/NC(=O)c2cc(-c3ccccc3)nc3ccccc23)ccc1O	.	?	2.9	-11	-2.9	8.5	9	-2.0
O=C(COC(=O)CNC(=O)c1ccccc1F)Nc1nnc(-c2ccccc2)o1	5%	-1	0.3	-1	0.1	.	-1	-1.1
NS(=O)(=O)c1cccc(NC(=S)NC(=O)C23CC4CC(CC(C4)C2)C3)c1	10%	16	0.3	13	1.7	1.3	.	.
CCc1noc(C)c1C(=O)Nc1cc(S(=O)(=O)N2CCCCC2)ccc1N(C)C	1%	4	-0.2	8	3.8	0.9	2	0.2
COCCn1c(SCC(=O)Nc2nc3ccccc3s2)nnc1-c1ccoc1C	20%	20	0.0	6	-0.5	-6.5	0	.

Ordered by molar mass (rising): part of the list above.
SMILES	Vif TR-FRET	Calb FLC	Bfl-1 A1 inh	T cruzi inh	RanGTP-Imp inh	LANA-H2B inh	Beta apoptosis	AF4-AF9 inh
CC(=O)NCc1cn2c(C)csc2n1	25%	-13	-0.7	-6	-3.4	-6.3	-1	8.0
COc1ccc(S(=O)(=O)n2[nH]c(=O)c(CCO)c2C)cc1	.	-3	0.2	-5	2.1	2.8	-5	-2.1
Cc1cccc2c(CCNC(=O)c3ccc([N+](=O)[O-])cc3)c[nH]c12	.	0	-0.4	15	2.7	3.5	-3	-10
O=C(COC(=O)CNC(=O)c1ccccc1F)Nc1nnc(-c2ccccc2)o1	5%	-1	0.3	-1	0.1	.	-1	-1.1
CN1CCCC2(CCCN(Cc3nc(Cc4cccc(C(F)(F)F)c4)no3)C2)C1 (stereo not given)	-14%	-30	0.2	26	1.3	4.4	-1	12
CCc1noc(C)c1C(=O)Nc1cc(S(=O)(=O)N2CCCCC2)ccc1N(C)C	1%	4	-0.2	8	3.8	0.9	2	0.2
C/C(=N\NC(=O)c1cc(-c2cccc(OC(C)C)c2)nc2ccccc12)c1cccnc1	-1%	-17	-0.6	63*	0.4	-1.3	2	5.6
COc1ccccc1N1CCN(C2CCCN(C(=O)CCc3c(C)noc3C)C2)CC1 (stereo not given)	.	20	0.6	3	4.3	3.1	-3	-0.7
COCCn1c(=O)[nH]c2cc(C(=O)N3CCN(c4cccc(Cl)c4)CC3)ccc2c1=O	-6%	1	-0.7	29	1.1	-1.0	1	-0.4
CCOCCCn1c(=S)[nH]c2cc(C(=O)N3CCC(C(N)=O)(N4CCCCC4)CC3)ccc2c1=O	-7%	-6	0.3	-1	-1.4	-4.3	-2	-0.3
CCN(CC)c1ccc(-c2nnc(SCC(=O)N(CCOC)c3c(N)n(CC(C)C)c(=O)[nH]c3=O)o2)cc1	7%	9	0.1	-7	-2.5	.	-4	-0.7

The list goes on:
SMILES	Vif TR-FRET	Calb FLC	Bfl-1 A1 inh	T cruzi inh	RanGTP-Imp inh	LANA-H2B inh	Beta apoptosis	AF4-AF9 inh
COc1ccccc1NC(=O)c1sc2ncn(Cc3cccc(C)c3)c(=O)c2c1C	7%	1	-0.1	9	-0.4	-2.1	9	.
CC(C)(C)[C@H](N)C(=O)N[C@H]1CCC2C3CC=C4C[C@@H](O)CC[C@]4(C)C3CC[C@@]21C (stereo not given in full)	-11%	.	11*	.	.	-0.8	52	2.6
O=C(c1cc(-c2cccs2)on1)N1CCN(c2ccc(F)cc2)CC1	5%	5	-0.2	-23	.	3.1	-6	.
COc1ccc(NC(=O)c2cccc3c(Br)cccc23)cc1	.	6	-0.3	3	-1.6	2.6	-3	-1.2
COC(=O)C1=C(C)N(C)C(C)=C(C(=O)OC)C1c1ccncc1	24%	-3	-0.1	6	-2.2	-1.2	0	.
Cc1cc(C(=O)Nc2ccc(C)c(S(=O)(=O)N3CCOCC3)c2)c(C)o1	11%	6	-1.7	3	1.1	-5.6	-6	-7.5
CC1=NN(c2ccccc2)C(=O)C1=C(C)C	-14%	1	0.2	-19	4.8	-2.6	-10	3.6
N/C(CCS(=O)(=O)c1ccc(Cl)cc1)=N\OC(=O)c1ccc(Cl)cc1	-6%	28	0.2	16	-1.2	-2.8	0	-1.6
Cc1cc(NC(=O)Cn2cnc3sccc3c2=O)no1	-8%	.	1.5	.	.	2.7	-1	-0.6
CCn1c(SCC(=O)N2CCN(c3cccc(Cl)c3)CC2)nc2ccccc2c1=O	5%	14	0.4	26	-3.0	3.8	-1	.
CCCCCCCCSc1nnc(/N=C/N(C)C)s1	-4%	0	0.1	-15	1.0	-1.0	-6	-1.1
O=c1cc(O)nc(SCc2ccccc2Cl)[nH]1	>100µM*	-9	0.2	-5	?	-5.4	-5	.
CSc1c2c(nc3ncnn13)CCC2	7%	?	-1.6	6	0.8	-0.5	-3	.
CCOC(=O)C(C)(C)Sc1nc2c(cnn2-c2ccc(F)cc2)c(=O)[nH]1	-1%	22	-1.4	-2	-4.4	1.5	4	-1.3
COc1cccc(N/C(N)=N/c2nc(C(F)(F)F)cc(C(F)(F)F)n2)c1	-2%	33	0.6	16	-1.9	3.4	3	1.2
CCC(C)c1ccc(NC(=S)N2CCN(C(=O)C3CCCO3)CC2)cc1 (stereo not given)	4%	-13	0.0	-4	0.9	2.2	-9	-0.4
CC(C)c1cc(C(=O)Nc2cccc(Cl)c2)no1	29%	-18	-9.5	.	4.6	-2.6	-1	.
CC(=O)c1ccc(S(=O)(=O)N(Cc2cc3cc4c(cc3[nH]c2=O)OCCO4)CC2CCCO2)cc1 (stereo not given)	8%&-4%	13	-0.3	-1	1.8	-0.6	4	.
COc1ccc(NC(=O)C(=O)NCC2CCCN2S(=O)(=O)c2cc(C)ccc2C)cc1 (stereo not given)	1%	-7	1.9	4	3.9	-7.5	10	0.6
Cc1ccc2nc(-c3cccc(S(=O)(=O)N(C)C)c3)cn2c1	1%	2	-0.1	-3	-0.9	8.7	-6	.
O=[N+]([O-])c1ccc2nc(C3CCCCC3)[nH]c2c1	-12%	18	1.4	1	-0.6	2.1	-3	1.6
CC(=O)N1CCOc2ccc(S(=O)(=O)NCCc3ccc(C)cc3)cc21	.	-34	-1.0	4	3.2	-4.0	-3	1.5
CCOc1ccccc1NC(=S)N(CCN(C)C)C(C)c1ccncc1 (stereo not given)	.	-11	-0.8	-15	2.1	-0.4	0	-0.2
CCCOc1cccc(C2/C(=C(\O)c3ccc4c(c3)OCCO4)C(=O)C(=O)N2CCCn2ccnc2)c1 (stereo not given)	-11%	-16	-0.5	-1	0.7	5.3	1	-2.7
CN1C(=O)[C@@H]2[C@H](C1=O)[C@@H]1C(=O)Nc3ccccc3C(=O)N1[C@@H]2c1cccc(Br)c1	.	-16	-0.3	-10	-1.2	5.6	1	-3.2
S=C(N=Nc1ccccc1)NNc1ccccc1	29%	.	-1.4	-9	1.1	-1.6	17	?
CSc1ccc(CCNC(=O)CCc2nnc3ccc(N4CCCC4)nn23)cc1	.	2	0.2	-26	-0.2	2.5	9	3.0
Cn1ncc(Cl)c1C(=O)N1CCCc2ccccc21	1%	-16	0.2	-27	-1.7	-5.2	3	.
Cc1ccc(S(=O)(=O)N2CCCC(c3nc(-c4ccc(C)o4)no3)C2)cc1 (stereo not given)	5%	5	0.3	31	?	1.7	-6	.
CC(=O)Nc1cccc(/C(C)=N/NC(=O)c2cccc(S(=O)(=O)N3CCOCC3)c2)c1	.	-5	0.6	-3	-3.0	2.2	-13	-2.7
Cc1ccc(CN2C(=O)C(Cc3ccccc3)Nc3ncnc(N4CCN(c5ccccc5)CC4)c32)cc1 (stereo not given)	.	51	0.1	34	2.9	-2.4	5	-35
Cc1ccc2[nH]c(C)c(CCNC(=O)c3c(N)no[n+]3[O-])c2c1	25%	5	1.0	-6	0.0	5.9	-1	2.2
CCOC(=O)C1CCN(c2cc3c(cc2NC(=O)c2ccccc2OCC)n(C)c(=O)n3C)CC1	.	-8	0.9	34	-33	-2.2	12	20
COc1ccc(Cn2nnnc2CN2CCN(c3ccc(OC)cc3)CC2)cc1	2%	6	1.4	9	-2.2	-3.1	.	1.3
CC(=O)c1c(C)[nH]c(C(=O)NNC(=O)COc2cc(C)ccc2C(C)C)c1C	.	.	1.6	.	.	1.1	2	-8.3
